High-throughput results from PubChem.
HNF4A DNA FP = change in binding of human HNF4A to DNA, primary screen, biochemical, fluorescence polarization, FITC-DNA; AID 1224865, 2016; actives 0.3% (n = 360,000); 1 h; activity change, % at 10 µM; Hepatocyte nuclear factor 4-alpha (Homo sapiens), P41235; in the data active means activity change above about 30%, passing the limit was not always enough;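 further: controls were the assay level and a saturating level of protein; the project sought stronger binding though the title names inhibitors; some compounds called inactive have numbers as strong as hits; positive values seem to mean higher polarization but the record does not say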
Target sequence (P41235 whole entry, looked up): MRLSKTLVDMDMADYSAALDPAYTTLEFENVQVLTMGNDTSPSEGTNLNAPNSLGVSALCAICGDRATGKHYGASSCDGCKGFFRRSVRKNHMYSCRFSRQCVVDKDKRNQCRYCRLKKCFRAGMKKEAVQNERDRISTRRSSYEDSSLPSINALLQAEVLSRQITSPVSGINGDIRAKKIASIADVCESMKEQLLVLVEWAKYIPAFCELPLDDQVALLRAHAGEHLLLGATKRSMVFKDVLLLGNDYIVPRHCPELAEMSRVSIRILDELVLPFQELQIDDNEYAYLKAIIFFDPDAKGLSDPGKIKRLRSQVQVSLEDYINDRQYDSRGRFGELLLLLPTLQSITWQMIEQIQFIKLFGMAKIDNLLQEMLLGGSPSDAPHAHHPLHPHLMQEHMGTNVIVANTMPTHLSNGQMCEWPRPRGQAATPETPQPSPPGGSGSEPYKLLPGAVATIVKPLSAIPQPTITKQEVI
FGF22 binding = binders of human FGF22 protein, primary screen, FGF22 synaptogenesis inhibitor project, biophysical, thermal shift, single point; Fibroblast growth factor 22 (Homo sapiens), Q9HCT0; calls only at 9.99 µM; recombinant FGF22 thermal shift, SYPRO orange fluorescence; percent of sucrose octasulfate shift, DMSO zero; actives 1.5% (n = 340,000); AID 651658, 2012;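 active means melting point raised past a set limit in the mean and every replicate; inconclusive means no clear call; three in four hits are not shown here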
Target sequence (Q9HCT0 whole entry, looked up): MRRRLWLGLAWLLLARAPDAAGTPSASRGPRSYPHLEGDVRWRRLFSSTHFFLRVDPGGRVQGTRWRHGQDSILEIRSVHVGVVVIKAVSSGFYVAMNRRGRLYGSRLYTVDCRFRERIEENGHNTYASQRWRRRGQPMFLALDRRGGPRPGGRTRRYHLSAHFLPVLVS
Vif A3G = inhibitors of Vif binding to APOBEC3G peptide, primary screen, biochemical, TR-FRET, GST-Vif 1-94, biotin-A3G peptide, dose response retest (AID 1117319); actives 0.57% (n = 260,000); Virion infectivity factor (Human immunodeficiency virus type 1 group M subtype B (isolate …; inhibition, %, or IC50 in µM where a hit was titrated; TR-FRET GST-Vif / biotin-A3G peptide binding; higher % means a stronger effect; test concentration not given here; strong numbers were not always called active;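 active means above the screen mean plus three standard deviations and confirmed in dose response; inconclusive means results disagree or hit not tested in dose response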;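 further: Vif residues 1-94 fused to GST binding biotinylated APOBEC3G peptide 110-148; 0% = full assay without inhibitor and 100% = GST in place of GST-Vif; retest series ran down from 100 µM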
RanGTP-Imp inh = inhibitors of RanGTP-importin-beta interaction, primary screen, biochemical, FRET, CFP-Ran, YFP-importin-beta, homogeneous. Ran GTPase (GTP-bound) - importin-beta complex. cell-free CFP-Ran/YFP-importin-beta FRET ratio. inhibition, % (test concentration not listed). actives 1.1% (n = 300,000);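 active means most replicates above 15%; inconclusive means exactly half above 15%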;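 further: 0% = DMSO wells and 100% = Ran loaded with GDP instead of GTP; wells of about 40 µL received 100 nL stock; the first replicate is given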
E coli growth = E. coli growth inhibition, primary screen, OD600 | Escherichia coli growth, 23 h; active compounds read low | actives 0.21% (n = 330,000) | AID 1053175, 2014 | OD600 absorbance (no concentration beside the values);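 active means OD600 absorbance below the run mean of sample wells minus 3.6 SD, in any replicate, cut at about 0.56 in these data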;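 further: stock transfer was 300 nL into about 60 µL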
UCH37 inh = inhibitors of human UCH37 deubiquitinase, primary screen, biochemical, Ub-AMC cleavage, fluorescence; Ubiquitin carboxyl-terminal hydrolase isozyme L5 (Homo sapiens), Q9Y5K5; actives 0.33% (n = 330,000); purified proteasome/UCH37; inhibition, % (test concentration not listed); AID 588478, 2011;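 active means mean of two replicates above 20%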;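 further: 0% = compound-free wells with enzyme and 100% = wells lacking proteasome; stock transfer was 100 nL into about 20 µL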
Target sequence (Q9Y5K5 whole entry, looked up): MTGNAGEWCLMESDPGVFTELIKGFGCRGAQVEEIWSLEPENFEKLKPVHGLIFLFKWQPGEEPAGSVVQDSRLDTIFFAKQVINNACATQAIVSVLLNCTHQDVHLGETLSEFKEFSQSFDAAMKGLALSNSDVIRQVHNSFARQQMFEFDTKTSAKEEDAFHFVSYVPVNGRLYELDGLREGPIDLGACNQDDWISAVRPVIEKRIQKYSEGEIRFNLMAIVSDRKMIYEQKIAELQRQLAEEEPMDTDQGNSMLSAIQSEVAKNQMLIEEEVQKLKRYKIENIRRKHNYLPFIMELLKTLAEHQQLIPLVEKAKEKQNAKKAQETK
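Signal – fluorescence, ex 355 nm, em 460 nm · System – Proteasome-bound UCH37 · Input – 0.15 nM proteasome as dispensed · Timing – 30 min preincubation with enzyme, 25 min cleavage at room temperature · Read-out basis – percent inhibition of cleavage signal versus uninhibited and no-proteasome wells · Medium – Tris-HCl pH 7.4 with ATP-MgCl2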
AF4-AF9 inh = inhibitors of AF4 peptide binding to AF9, primary screen, biochemical, AlphaScreen, biotin-AF4 peptide, FLAG-AF9, single point. Protein AF-9 (Homo sapiens), P42568. inhibition, % at 10 µM. actives 0.47% (n = 350,000). AID 651704, 2012;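 active means every replicate reaching a set inhibition limit, whatever the replicate mean, cut at about 25% in these data; inconclusive means mean inhibition reaches that limit but some replicates miss it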;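 further: 0% = plate neutral control median and 100% = total signal loss; the record names both 10 and 1 µM as test concentration; the first replicate is given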
* marks the source's active call; other numbers are inactive results; i = inactive; ? = inconclusive; . = no result given; & = joins results of further samples.

Screens in order: UCH37 inh | HNF4A DNA FP | Vif A3G | E coli growth | RanGTP-Imp inh | FGF22 binding | AF4-AF9 inh
> COc1ccc([C@H]2CC(=O)C=C(c3cccc(C#N)c3)C2)cc1
→ 0.9 | -6.5 | . | . | . | i | -1.6
> CCOc1ccc(CNC(=O)C2CCN(S(=O)(=O)N3CCC(C)CC3)CC2)cc1OC
→ . | 6.4 | -5.0% | . | . | i | -0.9
> CC(C(=O)N1CCOCCOCCOCCOCCOCC1)N1C(=O)c2ccccc2C1=O (stereo unspecified)
→ 1.8 | 2.3 | -2.1% | 0.715 | -1.9 | i | -1.4
> O=C(Cc1ccc([N+](=O)[O-])cc1)c1ccc(O)cc1O
→ 5.6 | -1.7 | 3.1% | 0.623 | 4.6 | i | -0.5
> CN(C)S(=O)(=O)c1cccc(NC(=S)NC2CCCCC2)c1
→ 2.5 | -0.4 | -4.0% | 0.688 | 4.0 | i | 1.4
> C=CCN(c1ccccc1)S(=O)(=O)c1cccc(C(=O)NCC(c2cccs2)N2CCOCC2)c1 (stereo unspecified)
→ 1.2 | 1.7 | -3.7% | 0.645 | -1.0 | i | 3.2
> COc1cc(CNCCN(C)C)c(Br)cc1OCC(=O)NCc1ccccc1
→ 1.7 | 2.9 | . | 0.625 | 1.6 | . | .
> C[C@H](CO)N1C[C@H](C)[C@H](CN(C)S(C)(=O)=O)OCc2ccccc2-c2c(n(C)c3ccccc23)C1=O
→ . | 0.4 | 0.4% | . | . | i | -1.9
> CN(C)CCCN1c2ccc([N+](=O)[O-])cc2CCc2cc([N+](=O)[O-])ccc21
→ 3.3 | 2.1 | . | 0.643 | 6.6 | i | 20.0
> Nc1nc2ccc(O)cc2s1
→ . | 1.2 | 7.5% | . | 0.0 | . | .
> COC(=O)c1noc(-c2ccc(OC)cc2)n1
→ 1.5 | 1.3 | -3.6% | 0.702 | 3.9 | . | .
> CCN(Cc1ccncc1)C(=O)c1cccc(S(=O)(=O)N2CCCCC2)c1
→ 2.3 | 3.5 | . | 0.7 | . | i | -2.1
> Cc1c(C(=O)NCc2cccs2)oc2ccccc12
→ 5.3 | -5.8 | 1.6% | 0.714 | 3.4 | . | .
> NC(=O)CC(NC(=O)c1cccc(Br)c1)c1ccc(NCCN2CCOCC2)c([N+](=O)[O-])c1 (stereo unspecified)
→ 1.6 | . | . | 0.665 | 0.8 | i | 2.3
> CCOc1ccccc1NC(=O)Nc1ccccn1
→ 1.6 | 9.2 | . | 0.681 | 0.7 | i | 5.9
> CCOC(=O)CN=C(NS(=O)(=O)c1ccc(Cl)cc1)c1ccccc1
→ 0.8 | 1.0 | 5.7% | 0.71 | -3.1 | i | -14.5
> O=C(NCc1cccnc1)C(=O)NCC(c1ccco1)N1CCOCC1 (stereo unspecified)
→ 4.3 | 4.1 | -1.2% | 0.72 | 1.4 | i | 3.3
> CCC(=O)NCCCCCCCCCNC(=O)CC
→ 0.9 | -1.2 | 0.3% | 0.658 | 1.1 | i | -4.5
> Nc1nc(Cl)cc(Sc2ccc3ccccc3c2)n1
→ 0.5 | -1.4 | 0.5% | 0.754 | -1.9 | . | .
> CCc1nc2ccc(C(=O)NCCc3ccccn3)cn2c1N(CC)CCOC
→ . | 0.6 | . | . | . | i | 2.0
> O=[N+]([O-])c1cccc(Oc2ncccc2[N+](=O)[O-])c1
→ 1.8 | 2.0 | 2.1% | 0.673 | . | i | 2.6
> COc1cc(F)cc(C2=CC(=O)C[C@H](c3ccc(F)cc3)C2)c1
→ -0.1 | 2.8 | . | . | . | i | .
> O=C(CNC(=S)NC(=O)c1cccs1)c1ccccc1
→ 2.5 | 3.1 | 3.1% | 0.654 | 0.3 | . | .
> COC(=O)c1c(NC(=O)c2ccc(S(=O)(=O)N3CCOCC3)cc2)sc2c1CCN(C(C)C)C2
→ 4.6 | 4.6 | -1.8% | 0.649 | ? | i | -3.1
> Cn1c(CCN2CCCCC2)nc2cc(NC(=O)NC3CCCCC3)ccc21
→ -1.8 | 1.2 | 16.5% | 0.699 | -2.1 | . | .
> CN(Cc1nc2ccccc2[nH]1)Cc1nc(CC2CC2)no1
→ 1.9 | -0.3 | 18.0% | 0.628 | -0.5 | i | -1.1
> O=C1CCC([N+](=O)[O-])C(c2cccc(Cl)c2Cl)N1 (stereo unspecified)
→ 2.9 | -1.3 | 3.2% | 0.777 | ? | . | .
> CCC(C(=O)NCc1ccco1)N(C(=O)CNS(=O)(=O)c1ccccc1)c1ccc(OC)cc1 (stereo unspecified)
→ 2.7 | -5.2 | 4.8% | 0.717 | 0.7 | . | .
> CC(Cc1ccccc1)NC(=O)C1CCCNC1=O (stereo unspecified)
→ -0.5 | 2.7 | 2.4% | 0.665 | 0.7 | i | -1.0
> Cc1sc(-c2ccccn2)nc1OC(=O)c1ccc(Cl)cc1
→ 3.2 | -4.4 | -5.6% | 0.713 | ? | . | .
> O=C(NCc1ccccc1F)c1ccncc1
→ -0.1 | -1.6 | . | 0.68 | 2.1 | i | 1.4
> Cc1nnc2n(Cc3ccccc3)c(=O)c3c4c(sc3n12)COC(C)(C)C4
→ -1.5 | 2.8 | 7.8% | 0.724 | 0.6 | . | .
> COc1ccc(C(=O)Nc2cc3c4c(c2)C(C)C(=O)N4CCC3)cc1 (stereo unspecified)
→ 4.1 | -1.4 | -5.5% | 0.68 | 0.6 | i | 2.2
> COc1ccc(-n2c(N)c(C(=O)NCC3CCCO3)sc2=S)cc1 (stereo unspecified)
→ 11.1 | -3.5 | 1.1% | 0.641 | -3.9 | . | .
> CCOc1ccc2[nH]cc(C(=O)NCCc3ccccc3)c(=O)c2c1
→ -2.3 | -4.3 | . | 0.715 | 3.6 | i | 6.0
> COc1ccc(S(=O)(=O)N2CCN(C(=O)COc3ccc4c(C)cc(=O)oc4c3)CC2)cc1
→ -29.2 | . | -7.0% | 0.702 | . | . | 4.3
> Cc1ccccc1OCCn1cc(C=O)c2ccccc21
→ 3.3 | 0.6 | -1.6% | 0.63 | 0.1 | i | -0.9
> OCC1OC(Nc2ccccc2C=NO)C(O)C1O (stereo unspecified)
→ . | 1.3 | 5.2% | . | . | i | -7.2
> Cc1ccc(N(C(=O)c2ccco2)C(C(=O)NC2CCCC2)c2ccco2)c(C)c1 (stereo unspecified)
→ 1.3 | -2.0 | 14.8% | 0.636 | 0.6 | i | 0.1
> CC(C)(C)n1nc2c(c1NC(=O)c1ccc(Cl)c([N+](=O)[O-])c1)CS(=O)(=O)C2
→ 4.1 | 0.7 | . | 0.641 | 2.9 | i | 0.1
> CCS(=O)(=O)c1ccc(-c2cccc(NC(=O)COc3ccccc3)c2)nn1
→ 5.4 | -3.7 | 7.5% | 0.721 | -2.7 | i | -8.3
> COc1ccc(C(=O)NCCn2cc(SCC(=O)NCC3CCCO3)c3ccccc32)cc1 (stereo unspecified)
→ 1.7 | -1.6 | -6.6% | 0.681 | 6.3 | i | -1.0
> O=c1[nH][nH]cc1C=NCc1cccc(C(F)(F)F)c1
→ 6.1 | 1.7 | ? | 0.722 | -0.8 | i | -0.8
> COc1cccc(Nc2nnc(SCC(=O)N3CC(C)OC(C)C3)s2)c1 (stereo unspecified)
→ -0.9 | -6.0 | ? | 0.69 | 7.1 | i | -6.1
> CC1CCCC(NC(=O)c2ccncc2)C1C (stereo unspecified)
→ 1.3 | -3.7 | 2.5% | 0.638 | -0.4 | i | -3.9
> Cc1cc(NS(=O)(=O)c2ccc(-c3ccccc3)cc2)no1
→ 1.7 | 1.0 | 3.4% | 0.673 | 1.4 | . | .
> COc1ccc(CCNC(=O)C2CCN(S(=O)(=O)c3ccc(-n4cnnn4)cc3)CC2)cc1OC
→ 3.2 | -3.1 | -0.1% | 0.733 | -2.7 | . | .
> O=C(NCc1ccncc1)C(=O)NCC(c1ccccc1)c1ccccc1
→ 2.1 | . | -14.8% | 0.734 | -4.5 | i | 1.0
> O=C(NCC[C@H]1CC[C@@H](NC(=O)C2CCC2)[C@@H](CO)O1)c1cc(Cl)cc(Cl)c1
→ . | -2.0 | . | . | . | i | -3.5&-3.7
> O=C(CNC(=O)c1cn2ccccc2n1)Nc1ccc(F)c(F)c1
→ 2.8 | -1.1 | -14.2% | 0.662 | -0.3 | i | -12.9
> CCCc1nc2sc3ccccc3c(=O)c2c(=O)n1Cc1ccco1
→ 5.1 | -7.5 | 12.0% | 0.701 | . | . | .
> CCC1CCCCN1C(=O)CCc1nnc(Cc2cc(OC)ccc2OC)o1 (stereo unspecified)
→ 3.6 | -1.1 | . | 0.659 | 3.6 | i | 4.4
> COc1ccc(Cl)cc1NC(=O)CCCN1C(=O)CCC1=O
→ 0.7 | -0.6 | 6.9% | 0.693 | -2.2 | . | .
> Clc1cc(Cl)c(OCc2nc(-c3ccccn3)no2)cc1Cl
→ -0.5 | 2.7 | -7.3% | 0.723 | 3.5 | . | .
> COc1ccccc1C1/C(=C(/O)c2ccccc2)C(=O)C(=O)N1CC(C)C (stereo unspecified)
→ 8.2 | 3.3 | 12.2% | 0.7 | 0.0 | . | .
> COc1ccc(NC(=O)C2(C)CCN2Cc2ccc(SC)cc2)cc1OC (stereo unspecified)
→ . | -0.4 | . | . | . | i | 6.1
> Cc1ccc(-c2cc(=O)c3cc(C)ccc3[nH]2)cc1
→ -1.3 | -0.8 | -2.4% | 0.596 | ? | i | .
> Cc1ccccc1NC(=O)Cn1nnc(S(=O)(=O)c2ccc(C(C)(C)C)cc2)c1N
→ . | 12.7 | 9.8% | . | -5.5 | i | -0.9
> Cc1ccc(S(=O)(=O)Cn2nnnc2C(CC(C)C)N2CCC(C(N)=O)CC2)cc1 (stereo unspecified)
→ 2.7 | 0.8 | . | 0.679 | 0.4 | i | -11.8
> COCCNC(=O)CSc1nc2sccc2c(=O)n1-c1ccccc1
→ 0.5 | 2.9 | . | 0.659 | 4.8 | i | -1.4

Next section.
Screens in order: UCH37 inh | HNF4A DNA FP | Vif A3G | E coli growth | RanGTP-Imp inh | FGF22 binding | AF4-AF9 inh
> CN(Cc1ccccc1)C(=O)c1ccc2c(c1)NC(=O)C(N1CCOCC1)S2 (stereo unspecified)
→ 1.3 | 4.8 | . | 0.682 | 9.2 | i | 4.0
> CC(C)NC(=O)C(c1ccc(F)cc1)N(C(=O)CCC(=O)Nc1ccccn1)c1ccccc1F (stereo unspecified)
→ -0.1 | -4.4 | . | 0.694 | -0.1 | i | -7.3
> CN1c2ccsc2C(=O)/C(=C\Nc2cccc(C(F)(F)F)c2)S1(=O)=O
→ -8.9 | -0.7 | . | 0.682 | 2.8 | i | 0.4
> COCCNC(=S)N1CCN(c2nc(-c3ccc(Cl)cc3)cs2)CC1
→ . | 5.0 | 4.6% | . | -2.1 | i | -6.3

Some values from above:
COCCNC(=S)N1CCN(c2nc(-c3ccc(Cl)cc3)cs2)CC1 in HNF4A DNA FP shows 5.0
CC(C)NC(=O)C(c1ccc(F)cc1)N(C(=O)CCC(=O)Nc1ccccn1)c1ccccc1F (stereo unspecified) in RanGTP-Imp inh shows -0.1

These rows are one share of the data, so the mix of outcomes need not match the whole.
